Source: PubChem BioAssay (National Center for Advancing Translational Sciences (NCATS))
gsp antagonist = antagonists of gsp mutant (McCune-Albright syndrome). gsp-mutant cells, cAMP HTRF, 30 min; control for the full effect not named in the record. Potency, µM (series often up to 76.9 µM), inactives show top-dose activity change, negative = inhibition, most hits filed as inhibitors. actives 0.4% (n = 340,000); active = falling curve of any shape with a large fitted effect; inconclusive = falling curve, mostly with a smaller effect; inactive = flat or rising curve; cell line not stated here;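 also: intracellular cAMP measured with PDE inhibitor Ro 20-1724 present during compound exposure; potency is read from the fitted curve at half-maximal effect; % is scaled to controls: 0 for no effect and ±100 for the full control effect; nearly all actives have a fitted effect of over 65% in size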
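Cells, 2000/well, grown 16–24 h in DMEM 10% FBS with 0.5 mg/ml G418, then compounds plus […] (300 uM addition stock), 30 min at 37C. cAMP read by HTRF (cAMP-d2 and anti-cAMP antibody-K in lysis buffer) after 30 min RT.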
TRPV1 potentiator = potentiators of human vanilloid receptor 1 (TRPV1); Q8NER1; actives 0.02% (n = 320,000); TRPV1-expressing cells, Fluo-8 calcium influx, capsaicin EC20 potentiation; host cell line not named in the record; control for the full effect not named in the record; potentiation, % at 8.33 µM; active means potentiation above 80%; inconclusive means 30% to 80%; inactive means below 30%; also: 0% is about no effect
Target sequence (Q8NER1 whole entry, looked up): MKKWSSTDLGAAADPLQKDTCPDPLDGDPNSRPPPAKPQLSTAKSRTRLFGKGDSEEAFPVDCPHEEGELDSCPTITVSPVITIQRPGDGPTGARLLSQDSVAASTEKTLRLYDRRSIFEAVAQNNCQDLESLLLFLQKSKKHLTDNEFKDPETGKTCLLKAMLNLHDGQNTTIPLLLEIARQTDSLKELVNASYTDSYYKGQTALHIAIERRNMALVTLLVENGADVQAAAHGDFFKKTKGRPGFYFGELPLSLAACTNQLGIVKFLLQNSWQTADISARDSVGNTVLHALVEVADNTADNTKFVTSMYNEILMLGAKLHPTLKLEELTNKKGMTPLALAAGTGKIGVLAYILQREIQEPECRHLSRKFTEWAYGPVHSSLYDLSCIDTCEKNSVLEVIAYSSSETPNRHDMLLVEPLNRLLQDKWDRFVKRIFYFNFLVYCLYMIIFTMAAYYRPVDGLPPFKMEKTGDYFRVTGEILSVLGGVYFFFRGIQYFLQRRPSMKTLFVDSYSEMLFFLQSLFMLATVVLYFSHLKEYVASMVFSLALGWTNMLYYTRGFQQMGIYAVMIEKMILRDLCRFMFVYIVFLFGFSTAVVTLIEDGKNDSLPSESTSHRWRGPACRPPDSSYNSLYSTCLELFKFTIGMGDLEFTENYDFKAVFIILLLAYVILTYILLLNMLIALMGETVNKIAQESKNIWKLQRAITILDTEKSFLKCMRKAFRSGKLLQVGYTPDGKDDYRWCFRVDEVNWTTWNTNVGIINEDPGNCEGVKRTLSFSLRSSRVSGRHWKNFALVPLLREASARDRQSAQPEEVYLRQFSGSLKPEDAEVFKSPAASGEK
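Cells expressing TRPV1 were dye-loaded with Fluo-8 and read kinetically: 10 s baseline, 3 min after compound (agonist portion), then 2 min after EC20 capsaicin (allosteric enhancer portion). Calcium-bound dye fluorescence at 480/520 nm.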
ClpP mod = qHTS Assay for Activators of ClpP | ATP-dependent Clp protease proteolytic subunit (Bacillus subtilis (strain 168)), P80244 | purified B. subtilis ClpP, FRET peptide cleavage, 20 min | Potency, µM (top dose mostly 57.5 µM), without a hit: at the top dose activity change, negative = active | actives 1.9% (n = 340,000) | AID 651965, 2013; active = well fitted falling curve with a large enough effect; inconclusive = small, poorly fitted or top-dose-only effect; inactive = no such curve, though single readings can be large or run the other way; also: potency is read from the fitted curve at half-maximal effect; the source files actives as falling curves though it sought activators and does not explain the sign; nearly all actives have a fitted effect of over 65% in size; many hits overshoot -100%
Target sequence (P80244 whole entry, looked up): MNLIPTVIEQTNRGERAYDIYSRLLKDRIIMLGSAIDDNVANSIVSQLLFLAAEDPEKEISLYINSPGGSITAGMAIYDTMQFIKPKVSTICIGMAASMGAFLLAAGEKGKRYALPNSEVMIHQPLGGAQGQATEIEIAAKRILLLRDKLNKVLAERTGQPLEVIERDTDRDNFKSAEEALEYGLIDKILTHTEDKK
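FRET quenching reversal measured ClpP activation: 10 microg/mL B. subtilis ClpP at pH 8 with the FRET-FV decapeptide, read at 430 nm after 320 nm excitation. The 20-min minus 0-min signal was scaled between DMSO/no-enzyme wells and ADEP (5.8 microM final).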
D2 PAM = potentiates the human D2 dopamine receptor allosterically; AID 624464; DiscoveRx D2 beta-arrestin cells, luminescence, 90 min; 100% = 57 uM dopamine signal; actives 0.23% (n = 360,000); potentiation, % (test concentration not listed); active = potentiation of 50% or more; inconclusive = 30% to 50%; inactive = 30% or less;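 also: compound concentration not given in the record; tested on top of an EC20 dose of dopamine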
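PathHunter D2 cells, attached overnight at 37 deg C, received compound in DMSO plus dopamine at EC20 (50 nM final) for 90 min at 37 deg C. Beta-arrestin recruitment was read as luminescence after 1 h with detection reagent at ambient temperature.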
Sfp PPTase inh = blocks B. subtilis Sfp PPTase activity; Potency, µM, for the others: max response, negative = inhibition, most hits filed as inhibitors; actives 3.5% (n = 310,000); AID 1490; Biochemical Sfp PPTase activity, qHTS; active = well fitted inhibition curve with a large enough effect; inconclusive = small, poorly fitted or top-dose-only effect, or another doubt; inactive = no such curve, though single readings can be large or run the other way;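 also: the enzyme is Sfp with the accession as filed and its product quenches rhodamine fluorescence; potency is read from the fitted curve at half-maximal effect; 0% = enzyme reaction without inhibitor and -100% = no enzyme wells; top concentration of the series not given in the record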
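Compounds were incubated with enzyme (final 15 nM) for 15 min at room temperature before substrate addition started the reaction. Fluorescence at 525 nm excitation, 598 nm emission was recorded immediately and after 30 minutes.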
Menin MLL FP FL = menin-MLL binding inhibition, fluorescein peptide | 290,000 tested, under 10 active | FP activity change, % at 61.4 µM | AID 1766 | Fluorescence polarization, fluorescein-MLL peptide displacement from menin; inconclusive = falling polarisation curve, or a change in total fluorescence; inactive = total fluorescence flat and polarisation flat or rising; no compound was filed as active; the % refers to the polarisation; negative = inhibition;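 also: % of control where 0% means no effect; inhibitors lower the polarisation; unlabelled MLL peptide was the positive control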
gsp agonist = agonists of gsp mutant (McCune-Albright syndrome) | gsp mutant cells, cAMP HTRF, 30 min; control for the full effect not named in the record | actives 0.13% (n = 340,000) | Potency, µM (doses to about 76.9 µM), without a hit: top-dose activation (cAMP increase), usual class: activators | AID 624287; active = well fitted activation curve with a large enough effect; inconclusive = small, poorly fitted or top-dose-only effect, or another doubt; inactive = no such curve, though single readings can be large or run the other way; cell line not stated here;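 also: phosphodiesterase inhibitor Ro 20-1724 added with compounds to block cAMP breakdown; potency is read from the fitted curve at half-maximal effect; nearly all actives have a fitted effect of over 60% in size; about a fifth of the inactives were tested at one dose only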
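Cells in DMEM/10% FBS with G418 were pretreated with compounds in DMSO plus […] (300 uM stock) for 30 min at 37C. cAMP was measured by HTRF (cAMP-d2 plus anti-cAMP antibody-K) after 30 min at room temperature.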
Starred values were filed as active, the others as inactive; u = inconclusive; x = no result given; & = joins results of further samples; [ ] = remark or other dose. The list is partial. The share of hits here may be higher or lower than overall.

SMILES	gsp antagonist	TRPV1 potentiator	ClpP mod	D2 PAM	Sfp PPTase inh	Menin MLL FP FL	gsp agonist
COc1ccccc1CCNCc1ccc(OC)c(OC)c1OC	10%	2	-0.2%	-20	u	-3.9	-5%
COc1cccc(-c2nc(CS(=O)CC(=O)N3CCC4(CC3)OCCO4)c(C)o2)c1 (centres undefined)	-7%	-12	-5.1%	-11	-3%	2.8	0%
O=C1NC(=O)C(=Cc2ccc3ccccc3c2)C(=O)N1	4%	-3	4.2%	-20	40µM*	x	-31%[inhibitor]
C/C(=N\NC(=O)c1ccccc1O)c1c(O)n(Cc2ccccc2)c(=O)[nH]c1=O	-9%	-8	-4.9%	-8	18%	10	-1%
CC(C)n1c(=O)c(C=Nc2ccc(S(N)(=O)=O)cc2)c(O)n(Cc2ccco2)c1=O	-10%	0	-9.8%	-19	16%	25	-19%
Cc1ccc(-c2ccc(=O)n(CC(=O)N3CCC4(CC3)OCCO4)n2)cc1	6%	-7	-2.9%	-5	1%	3.7	23%
Cc1c(O)ccc(C(=O)CN2CC(C)OC(C)C2)c1O (centres undefined)	-6%	-3	-8.4%	-12	7%	-0.1	8%
O=S(=O)(c1cccc(C(F)(F)F)c1)N1Cc2ccccc2-n2nncc2C1	x	x	1.1%	-1	x	x	21%
NN=C1C(Cl)=C(Cl)C(Cl)=C1Cl	x	x	2.4%	-25	x	x	-49%[inhibitor]
O=C(NC1CC1)c1cn(Cc2ccccc2)nc1-c1ccccc1	-24%	18	x	-3	x	x	-2%[15.4 µM]
[N-]=[N+]=NCCN1CCC(O)CCC1=O (centres undefined)	7%	-4	0.9%&-0.8%	4	10%	4.2	x
CC1=NN(c2ccccc2)C(=O)C1/C=C1\C(=O)NC(=O)N(c2cc(C)cc(C)c2)C1=O (centres undefined)	-2%	26	25µM*	-20	-18%	13	5%

Of the compounds above, 2 have a halogen:
SMILES	gsp antagonist	TRPV1 potentiator	ClpP mod	D2 PAM	Sfp PPTase inh	Menin MLL FP FL	gsp agonist
O=S(=O)(c1cccc(C(F)(F)F)c1)N1Cc2ccccc2-n2nncc2C1	x	x	1.1%	-1	x	x	21%
NN=C1C(Cl)=C(Cl)C(Cl)=C1Cl	x	x	2.4%	-25	x	x	-49%[inhibitor]

Other records follow:
SMILES	gsp antagonist	TRPV1 potentiator	ClpP mod	D2 PAM	Sfp PPTase inh	Menin MLL FP FL	gsp agonist
CCC(C)C12CN3CCN(CC(C)(C3)C1O)C2 (centres undefined)	6%	0	x	-2	15%	4.1	-1%
Cc1ccc2c(c1)C(c1ccccc1)=NCC(=O)N2	7%	4	x	-1	1%	-0.3	u
OC(CN1CCC(c2c[nH]c3ccccc23)CC1)C(F)(F)F (centres undefined)	3%	-3	-1.6%	-10	11%	-0.1	7%
COC(=O)C1=C(c2ccc(C(C)=O)cc2)C[C@@H]2CC[C@H]1N2C(=O)N1CCC(O)(c2ccc(Cl)cc2)CC1	-12%	-7	-1.1%	-11	x	x	-3%
CCc1ccc(NC(=O)CCNC(=O)N2C[C@H]3C[C@@H](C2)c2cccc(=O)n2C3)cc1	9%	-40	-4.4%	-19	9%	22	x
O=C1/C(=C\c2ccncc2)N2CCC1CC2	16%	-6	1.1%	-22	0%	1.4	-53%
CN(c1ccc(O)cc1)c1ccc([N+](=O)[O-])c2nonc12	x	x	-0.9%	-29	x	x	-57%[inhibitor]
Cc1cc(NC(=O)CCl)no1	3%	26	0.5%	-4	9%	0.4	-3%
COP(=S)(OC)c1c(C)nn(CCC#N)c1NC(=O)c1ccc(Cl)cc1	-5%	-8	x	-4	3%	-0.7	-35%[inhibitor]
Cn1c(=O)c2c(ncn2CCCl)n(C)c1=O	19%	19	0.6%	0	14%	-0.3	u
Cc1ccc(N)c(C(=O)c2ccccc2)c1	-28%	-4	-0.6%	-6	5%	2.0	-40%
CC(NS(=O)(=O)OCC(Cl)(Cl)Cl)c1ccccc1 (centres undefined)	14%	-1	-0.3%	-9	14%	3.3	-50%[inhibitor]

Record cards (already shown). Values in the order: gsp antagonist | TRPV1 potentiator | ClpP mod | D2 PAM | Sfp PPTase inh | Menin MLL FP FL | gsp agonist
Record of Cc1ccc(-c2ccc(=O)n(CC(=O)N3CCC4(CC3)OCCO4)n2)cc1 = 6% | -7 | -2.9% | -5 | 1% | 3.7 | 23%
Record of CCc1ccc(NC(=O)CCNC(=O)N2C[C@H]3C[C@@H](C2)c2cccc(=O)n2C3)cc1 = 9% | -40 | -4.4% | -19 | 9% | 22 | x
Record of OC(CN1CCC(c2c[nH]c3ccccc23)CC1)C(F)(F)F (centres undefined) = 3% | -3 | -1.6% | -10 | 11% | -0.1 | 7%
Record of C/C(=N\NC(=O)c1ccccc1O)c1c(O)n(Cc2ccccc2)c(=O)[nH]c1=O = -9% | -8 | -4.9% | -8 | 18% | 10 | -1%

The list continues.
SMILES	gsp antagonist	TRPV1 potentiator	ClpP mod	D2 PAM	Sfp PPTase inh	Menin MLL FP FL	gsp agonist
CCc1cccc2c(C#N)cn(CC(=O)N3CCOCC3)c12	12%	-1	-2.6%	14	7%	-4.2	2%
CN(C)c1cc[n+](CC(O)C[n+]2ccc(N(C)C)cc2)cc1	-1%	-27	0.8%	-8	x	x	x
N=C1c2ccccc2CN1c1ncccn1	6%	3	x	-5	2%	0.7	-4%[15.4 µM]
COC(=O)C1=C(c2ccccc2)C[C@@H]2CC[C@H]1N2C(=O)NCC1CC1	-3%	x	-2.3%	-12	x	x	13%
Cc1cccc(N2CCC3(CC2)C(=O)NC(=O)NC3=O)c1	-9%	x	-0.5%	-5	x	x	-6%
COC(=O)C1=C(c2c(C)noc2C)C[C@@H]2CC[C@H]1N2C(=O)N1CCOCC1	11%	9	-1.5%	-1	x	x	45%
Nc1ccccc1C(=O)OCC(=O)Nc1ccc(Br)cc1F	4%	4	28µM*	-1	0%	1.5	-7%
CCc1ccc(N2C(=O)NC(=O)/C(=C\C=C\c3ccco3)C2=O)cc1	-13%	-9	0.8%	-12	50µM*	u	0%
O=C(O)c1ccc(NC(=O)N2C[C@H]3C[C@@H](C2)c2cccc(=O)n2C3)cc1	7%	-6	-1.3%	-13	22%&13%	0.9&-0.7	x
Cc1ccccc1NC(=NCCCN1CC1)Nc1ccccc1C	6%	x	-0.7%	-17	x	x	8%
CCOc1ccc(NC(=O)N2C[C@H]3C[C@@H](C2)c2cccc(=O)n2C3)cc1	3%	-8	-0.1%	-6	10%	-1.8	x
O=C(Cc1cc(=O)[nH]c(=O)[nH]1)N1CCN(CCO)CC1	2%	-7	-0.6%	-13	10%	-16	10%
Clc1ccc(CNC2CN3CCC2CC3)cc1 (centres undefined)	16%	8	1.2%	-12	4%	-1.3	-23%
COC(=O)C1=C(c2ccc(F)cc2F)C[C@@H]2CC[C@H]1N2C(=O)NCc1ccc(C(F)(F)F)cc1	-5%	-7	3.4%	-10	x	x	u
Cc1ccccc1C(O)(Cc1ccccc1)C1CN2CCC1CC2 (centres undefined)	15%	-11	-1.5%	-2	-2%	0.3	3%
N/C(=N\[N+](=O)[O-])N1CCN(C(=O)c2ccccn2)CC1	9%	u	-2.9%	-6	9%	-1.1	10%[15.4 µM]
Cc1cc(C=C2C(=O)NC(=O)NC2=O)c(C)n1-c1ccncc1	-9%	-9	x	8	56µM*	u	9%[15.4 µM]
Cc1ccc2cc3cc(C(=O)N4CCC5(CC4)OCCO5)oc3nc2c1	1%	x	14µM*	-12	8%	0.3	-30%
CC1=C(C/C(C)=C/c2ccccc2)/C(=C/CO)[C@@H]2OC(=O)O[C@]2(C)C12CC2	-15%	x	0.8%	-2	x	x	14%
COc1ccc(N(CC(=O)Nc2cc(OC)ccc2OC)S(C)(=O)=O)cc1	15%	5	-1.1%	0	-6%	3.3	-55%[inhibitor]
COc1ccc(CC2c3cc(OC)c(OC)cc3CCN2C)cc1OC (centres undefined)	11%	11	4.5%	-6	15%&5%	0.0&-16	-81%[inhibitor]
Cc1cccc(C)c1NC1=NCCCCS1	5%	6	0.5%	-25	1%	-0.2	-12%
Cc1cccc(OP(N)(=O)Oc2cccc(C)c2C)c1C	1%	12	0.2%	-19	8%	0.0	-10%
COCCn1c(-c2ccccc2)cc(C(=O)O)c1C	9%	x	u	-8	x	x	6%
COC(=O)C1=C(c2cccc(OC)c2OC)C[C@@H]2CC[C@H]1N2C(=O)N1CCC(C)CC1	-8%	x	-0.7%	-7	x	x	25%
CCC1(CC)C(=O)N(C)C(=O)NC1=NC	5%	-27	-2.0%	0	-9%	4.3	1%[15.4 µM]
CC/C(=N\Nc1ccccc1)c1c(O)n(C)c(=O)n(C)c1=O	-2%	1	-4.9%	x	u	-2.5	10%
COC(=O)C1=C(c2ccc(-c3ccccc3)c(F)c2)C[C@@H]2CC[C@H]1N2C(=O)NCCO	-7%	-4	3.9%	-12	x	x	1%
COCCOC(=O)C1=C(C)OC(N)=C(C(=O)OC)C12C(=O)Nc1ccccc12 (centres undefined)	9%	-2	-2.0%	7	14%	9.6	36%
COc1ccc2c3c1OC1C(O)C=CC4C(C2)[N+](C)(C)CCC341 (centres undefined)	1%	20	1.9%	-4	u	-17	-9%
CC(C)C(=O)Nc1nnc(CCN(CCc2nnc(NC(=O)C(C)C)s2)[N+](=O)[O-])s1	8%	x	-1.7%	-4	20%	-2.1	4%
COc1ccc(CN2CCN(C(=O)Cn3c(=O)oc4cc(Cl)ccc43)CC2)c(OC)c1OC	-8%	-2	0.5%	-6	16%	2.4	-10%
Cc1ccc(N2C(=O)NC(=O)C(CCc3ccncc3)(Cc3cccc(Cl)c3Cl)C2=O)cc1 (centres undefined)	-10%	-3	-4.7%	0	-10%	1.2	4%
O=C1c2ccccc2C(=O)N1Cc1nc2ccccc2c(=O)n1-c1cccnc1	8%	4	0.8%	-1	26%	2.4	u
CCCCn1c(=O)c(C(=O)Nc2ccccc2C)c(O)c2ccccc21	0%	-9	-0.7%	-13	-7%	-2.0	0%[15.4 µM]
CNC(=O)Oc1ccc(-c2cn3cc(C)ccc3n2)cc1	8%	-11	13µM*	28	-1%	6.3	15%
CCNC(=O)NNC(=O)C1CC(c2cccnc2)=NO1 (centres undefined)	14%	11	-1.4%	-8	0%	0.1	2%[15.4 µM]
